# Screening data deposited in PubChem by Fisher Drug Discovery Resource Center.
# NPYLR7 ag: activates Aedes aegypti NPYLR7 receptor; HEK293T NPYLR7/Galpha15, GCaMP6s calcium fluorescence; activation, % at 10 µM; 270,000 tested, 0.15% active; in the data active = activation above about 40%;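 note: 0% = vehicle and 100% = reference agonist at the receptor; some compounds past the cut are filed as inactive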
# NPYLR7 ag max-min: also measured in NPYLR7 ag; calls as there; activation, %; measured here: Max-Min RFU normalised activation; some inactives read as strong as hits;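 span of the calcium signal over five minutes; 0% = vehicle and 100% = native peptide agonist; compound fluorescence can raise it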
# * = called active by the depositor; i = inactive; & = joins results of further samples.
SMILES,NPYLR7 ag,NPYLR7 ag max-min
COc1ccc(C2(C)NC(=O)N(NC(=O)CN3CCC(C)CC3)C2=O)cc1 (stereo not drawn),0.3,5.4
CC(C)OCCS(=O)(=O)NC1CC(C)N(c2ccccc2)C1 (stereo not drawn),8.4,6.5
O=C1CCCc2occ(C(=O)N3CCCC(O)(CO)C3)c21 (stereo not drawn),-1.8,-9.5
Cn1c(=O)c2[nH]c(-[n+]3ccc(C(=O)NCc4ccccc4)cc3)nc2n(C)c1=O,-5.5,-7.2
CN1CCCc2cc(C(CNC(=O)NCc3cccs3)N3CCCC3)ccc21 (stereo not drawn),-5.6,-7.0
COc1ccc(N(C(=O)CN2C(=O)c3ccccc3C2=O)C2(C(=O)Nc3c(C)cccc3C)CCCC2)cc1,-0.9,-7.6
c1nc(N2CCCCC2)c2c3c(sc2n1)CCCC3,4.3,1.6
CC1SC(c2ccc(C(F)(F)F)cc2)N(CCN2CCN(C(=O)c3cccs3)CC2)C1=O (stereo not drawn),-1.5,8.5
CN1CCN(C2(CNCc3cn(C)nc3-c3ccccc3F)CCCCC2)CC1,18.7,3.2
N#Cc1c(N)n(-c2ccc(Br)cc2)c2nc3ccccc3nc12,6.4,12.6
CCc1nc2c(OCCn3cccc3)cccn2c1N(C)C(=O)c1ccncc1,-5.1,-6.6
Cc1ccc2oc(-c3cc(NC(=O)C4CCC4)ccc3Cl)nc2c1,-16.3,-3.0
O=C(NC(C(=O)N1CCOCC1)C1CCN(C(=O)c2ccc(F)cc2)CC1)c1ccc2c(c1)OCO2 (stereo not drawn),10.8,12.3
Cc1ccccc1CN1CCC(CN(CC2CCCO2)C(=O)c2ccc3[nH]ccc3c2)CC1 (stereo not drawn),3.6,-4.7
C[C@@]1(c2cc(-c3cncnc3)c(F)cc2F)CCSC(N)=N1,-7.0,-13.4
CCN(CC)CCCn1c(N)c(C#N)c2nc(C#N)c(C#N)nc21,5.7,2.1
COc1ccc(Nc2nc(N3CCN(C)CC3)nc(N)c2[N+](=O)[O-])cc1,0.2,0.1
CC(Oc1cc(Cl)ccc1Cl)C(=O)N1CCNC1=O (stereo not drawn),-1.6,-3.2
Cc1ccc(-c2c(C)nn3c(N4CCCCC4)cc(C)nc23)cc1,3.0,5.2
CCNC(=S)NN=C(CC(C)C)CC(C)C,6.1,3.6
COc1ccc(OCc2nc(CSc3nc4cc(Cl)ccc4o3)cs2)cc1,21.0,30.8
O=C(c1ccc(N2CCC(CO)C2)nc1)N1CCC(CCc2ccccc2)CC1 (stereo not drawn),5.8,4.8
CC(=O)Nc1ccc2nc(NC(=O)c3ccc[nH]c3=S)sc2c1,-3.0,-2.1
CN(Cn1nc(CCC(N)=O)n(C2CC2)c1=S)C1CCCc2ccccc21 (stereo not drawn),8.0,2.2
CCOC(=O)c1nn(-c2ccccc2)c(=O)cc1OCC(=O)Nc1ccc(OC)cc1,13.1,7.0
CCCCNC(=O)N1CCN(c2cc(Cl)nc(SCC(=O)NCc3ccc(F)cc3)n2)CC1C (stereo not drawn),0.2,14.2
Cc1ccc(-c2ccc(=O)n(CCNC(=O)NC3CCCCC3)n2)cc1,-4.3,0.8
COc1ccccc1N1CCN(Cc2sc(N(C)C)nc2Cl)C(C)C1 (stereo not drawn),-0.2,-4.6
O=C(CCCSc1ccc(NC(=O)C2CC2)nn1)Nc1cnc2ccccc2c1,-0.4,-2.2
O=C(c1ccc(F)cc1)N(Cc1cccc(OS(=O)(=O)c2ccc(F)cc2)c1)Cc1ccco1,-8.3,2.4
Cc1ccc(C)c(-n2nc(-c3ccc([N+](=O)[O-])cc3)cc2C(=O)NCc2ccccc2)c1,18.9,24.2
CCOc1c(Cl)cc(CNC(=O)NCc2cccc(C)n2)cc1OC,0.4,-2.0
CC(=NCCc1ccccc1)c1c(C(F)(F)F)[nH]n(-c2nc3ccccc3s2)c1=O,-16.2,-20.6
CSc1nc2c(c(=O)[nH]c(=O)n2C)n1CCCc1ccccc1,-6.2,2.6
CCOc1cccnc1C(=O)OCc1ccc(C(F)(F)F)cc1,0.6,0.4
Cn1cc([N+](=O)[O-])c(C(=O)NC2CCCCC2)n1,-3.2,-5.6
O=C(CCN(CCCN1CCOCC1)c1nc(-c2ccco2)nc2ccccc12)NCc1ccccc1,19.5,23.5
CC(OC(=O)C1CC1c1cnn(C)c1)c1ccc(F)cc1F (stereo not drawn),0.2,14.5
O=C1NC(=S)N(c2ccccc2)C(=O)/C1=C/c1ccc(-c2cccc(C(=O)O)c2)o1,4.8,6.6
CCOC(=O)[C@@H]1CN(C(=O)OCc2ccccc2)[C@H]2c3cc(Cl)ccc3O[C@@H]12,1.2,10.6
COc1ccccc1OCC1CN(C(=O)c2ccccc2C#N)CCO1 (stereo not drawn),-7.9,-10.7
Cc1cc(Cl)ccc1NC(=O)N1CCC(Cn2cc(CN(C)C)nn2)CC1,18.5,7.8
CC(C)Cc1nc(CC(F)(F)F)n(-c2cccc3cccnc23)n1,4.2,-2.6
CCN(C(=O)C(C)OC(=O)c1ccc2[nH]c(C)c(C)c2c1)C1CCS(=O)(=O)C1 (stereo not drawn),1.9,-2.0
CCCn1c2ccc(Br)cc2c2nc3ccccc3nc21,-0.8,-2.0
Cc1ccccc1CSc1nnc(C(C)NC(=O)CCc2ccccc2)n1-c1cc(Cl)ccc1C (stereo not drawn),17.2,27.8
Cc1cc(C)c2c(n1)nn1c(Nc3ccc(C(C)C)cc3)cc(C)nc21,2.7,8.5
CN(C)C(=O)COC1CN(C(=O)Nc2cccc(CN3CCCCC3=O)c2)C1,-3.9,-4.4
O=C(Nc1ccc(Oc2ccccc2)cc1)c1cccnc1Nc1cc(Cl)cc(Cl)c1,-1.7,-7.3
O=c1[nH]c(Cc2ncc(C(F)(F)F)cc2Cl)nc2ccc(F)cc12,-6.2,-5.3
CC(=O)C(C)n1c(CN2CCN(c3cc(Cl)ccc3C)CC2)nc2c1c(=O)[nH]c(=O)n2C (stereo not drawn),1.2,30.3
C=CCNC(=O)C(NC(=O)c1ccc2c(c1)OCO2)C1CCN(S(=O)(=O)C(C)C)CC1 (stereo not drawn),7.6,12.0
COCCn1c(C)cc(O)c(C(c2ccccc2)N2CCN(c3ccc(F)cc3)CC2)c1=O (stereo not drawn),5.9,2.9
COc1cccc(CNC(=O)CCC2CCCN(C(=O)CCc3c(C)nn(C)c3C)C2)c1 (stereo not drawn),3.6,5.1
O=C(CN1C(=O)c2ccccc2C1=O)Nc1ccccc1C(=O)NC1CCCCC1,2.8,-3.8
COC(=O)C1CCCN1C(=O)C1CCN(S(=O)(=O)c2ccc3c(c2)OCCCO3)CC1 (stereo not drawn),6.6,7.9
CCOC(=O)C1(CCOC)CCCN(Cc2[nH]c3ccc(OC)cc3c2C)C1 (stereo not drawn),2.9,-2.1
NC(=O)CSc1nc2c(c(=O)n1-c1cccc(C(F)(F)F)c1)SCC2,-10.3,-14.2
COc1ccccc1-n1ncc2c(C)nnc(SCC(=O)Nc3cccc(C)c3C)c21,-7.9,-15.3
CC(Nc1ccc2c(c1)OC1(CCCCC1)O2)C(=O)Nc1c(F)cccc1F (stereo not drawn),15.0,12.4
# Other structures follow:
SMILES,NPYLR7 ag,NPYLR7 ag max-min
Cc1ccc(C)c(S(=O)(=O)Oc2ccccc2)c1,8.5,6.9
CC(C)c1nc(C(=O)NC2CC(=O)N(C)C2)nn1-c1ccccc1F (stereo not drawn),-25.4&10.7,-26.7&5.5
O=[N+]([O-])c1ccc(C=Cc2nc3cc([N+](=O)[O-])ccc3s2)cc1,-6.4,-7.2
CCc1nc(SCC(=O)NCCC2=CC[C@H]3C[C@@H]2C3(C)C)n[nH]1,13.8&11.0,5.0&8.3
CS(=O)(=O)N(CC(=O)NCCc1cnc[nH]1)c1cccc(F)c1,-3.4,-6.3
Cc1[nH]n(-c2nc(-c3ccccc3)cs2)c(=O)c1N=Nc1ccc(Cl)cc1C(=O)c1ccccc1,-3.4,-13.5
CC1CN(C(C)(C)CNC(=O)c2ccc(F)cc2Cl)CC(C)O1 (stereo not drawn),1.1,0.1
COc1cccc(-c2noc3c2CN(C(=O)CC2=CCCCC2)CC3)c1,4.5,1.8
O=C(NCCCOc1cccc([N+](=O)[O-])c1)C1CCCCCC1,-0.8,-9.3
CC(C)C(C)(C#N)NC(=O)CNc1cccc(I)c1 (stereo not drawn),0.8,1.2
O=S(=O)(c1ccc(C(F)(F)F)cc1)N1CCN(CC(O)c2ccccc2)CC1 (stereo not drawn),11.8,3.1
Cc1ccc(-n2c(Cc3ccccc3)nnc2SCCCCC(=O)N2CCN(C(=O)COc3ccc(Cl)cc3)C(C)C2)cc1 (stereo not drawn),-2.0,4.5
O=C(Nc1ccccc1N1CCCCC1)C1CCC1,-0.6,0.0
CN(Cc1ccccc1)Cc1cnc(S(C)(=O)=O)n1Cc1ccccc1F,3.5,0.3
CCCCN1C(=O)c2cccc3c(NC(=O)C4CCCN4S(=O)(=O)c4cccs4)ccc1c23 (stereo not drawn),6.2,3.9
Cc1ccn2c(NC(=O)CC(C)CC(C)(C)C)c(-c3ccccc3)nc2c1 (stereo not drawn),-8.9,-1.5
O=C(NCCCNC(=O)[C@H]1CCCN1C(=O)c1ccc([N+](=O)[O-])cc1)c1ccc(F)cc1,24.4,29.4
O=C(c1cc(=O)c(OCc2ccccc2)c[nH]1)N1CCN(c2ccc(F)cc2)CC1,-7.8,-9.6
Cc1cc(C)nc(SCc2ccc(C(=O)N3C4CCC3CC(Oc3ccccc3C(C)C)C4)cc2)n1 (stereo not drawn),7.4,-5.1
COC(=O)c1[nH]ncc1CN1CCN(c2ncnc3ccccc23)CC1,6.5,3.1
Cc1cccc(COC(CN2CCN(S(=O)(=O)c3ccc(Cl)cc3)CC2)c2ccc(Cl)cc2)c1 (stereo not drawn),20.9,11.4
O=c1c2sccc2nc(SCc2cc(=O)n3ccccc3n2)n1CCCN1CCCCC1,12.5,5.9
COC(=O)N1CCC(Nc2ncnc3ccc(F)cc23)C1 (stereo not drawn),9.9&3.7,-5.3&1.7
COc1cc(-c2ccccc2CN2CCOCC2)cc(OC)c1OC,-3.7,-4.2
CCCOc1cccc(C(=O)Nc2cccc(-c3nc4cc(C)ccc4o3)c2C)c1,10.1,6.3
O=C(NCCc1cccs1)c1ccc(-c2cc(-c3ccc(Cl)cc3Cl)[nH]n2)cc1,4.3,16.9
O=C1CSC2(N1)C1CC3CC(C1)CC2C3 (stereo not drawn),-2.6,-5.7
CCOC(=O)C1=C(CC)NC2=C(C(=O)CC(C)(C)C2)C1c1cc(OC)ccc1OC (stereo not drawn),5.8,6.1
NC(=S)c1cc2ccccc2oc1=O,21.7,20.8
COc1ccc2[nH]c(C(=O)N3CCc4c(nc[nH]c4=O)C3)c(C)c2c1,2.4,-0.1
O=C(Nc1ccnc(Cl)c1)C1CC2CCC1C2 (stereo not drawn),5.0,5.7
COc1cc(Br)c(CSc2nnc(C3CC3)n2C2CC2)cc1OC,-1.3,1.3
CN(C)CCCN1C(=O)C(=O)C(=C(O)c2ccccc2)C1c1cccc(Br)c1 (stereo not drawn),0.5,-2.9
CC(C)(C)OCCN1CCCC1c1nc(Cc2ccc(F)cc2)no1 (stereo not drawn),3.2,0.6
CC1(C(=O)Nc2ccc3c(c2)OCO3)CCN1Cc1ccc(-c2ccccn2)cc1 (stereo not drawn),3.5,-2.6
Cc1nc(C(C)C)sc1C(=O)N1C[C@H](O)[C@@H](N2CCOCC2)C1,4.7,2.3
Cc1cccc(CNc2nc3cnc(-c4cccc(C(F)(F)F)c4)cc3n2C)c1,8.1,0.2
CCCCCCc1ccc(C(=O)N(CCCOC)C(C)c2nc3ccccc3c(=O)n2-c2ccc(C)c(C)c2)cc1 (stereo not drawn),23.0,25.8
CC(=O)Nc1c(-c2cc(=O)oc3cc4c(cc23)CCC4)oc2ccccc12,-2.8,-7.0
Cc1nc(CN(C(=O)C2CC(=O)N(C(C)C)C2)c2ccc(F)cc2)cs1 (stereo not drawn),2.3,-1.4
COCCCNC(=S)NC(=O)c1ccc([N+](=O)[O-])cc1,0.9,3.4
CCC1CCCCN1C(=O)CS(=O)(=O)Cc1nc(-c2ccccc2C)no1 (stereo not drawn),-3.5,i
Cc1cccc(CN2CCCn3cccc3C2c2cccc(F)c2)c1 (stereo not drawn),-4.9,-0.6

# An excerpt; count on the stated rates, not on these rows.
